ugtP null kill – growth inhibition of ugtP-null S. aureus, primary screen, RN4220 ugtP deletion, OD600 | 16 h; some inactives read as strong as hits | growth inhibition, % (test concentration not listed) | actives 0.54% (n = 330,000) | AID 1259309, 2017;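 active = z-score under -3 and OD600 up to 0.15 on both plates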;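 note: plate controls were untreated wells for no effect and antibiotic for full effect; wells of about 80 µL received 100 nL stock; the first replicate is given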
Autofluor counter – compound fluorescence in toxin protease inhibitor counterscreen; compound autofluorescence counterscreen, microsphere flow cytometry; hits give high values; fluorescence intensity (test concentration not listed); actives 3.1% (n = 360,000); AID 624483;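 active = at least 3 SD above the mean of all compounds, about 16000 in these data; inconclusive = too few beads counted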;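 note: 100 nL of 1 mM stock went into each well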
Mtb hypoxia inh – PubChem AID 1159583. M. tuberculosis hypoxia-regulated fluorescent reporter, fluorescence. fluorescence inhibition, % (no concentration beside the values). actives 0.1% (n = 300,000);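 active = 35 to 45% if threefold the growth effect, above 45% if 1.5-fold the growth effect; inactive = the rest, general growth blockers included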;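 note: wells of about 50 µL received 100 nL stock; 0% = vehicle wells and 100% = reference inhibitor wells; whole bacteria with a GFP reporter of the hypoxia response; strong numbers were not always called active; many hits fall short of the cut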
Sa RN4220 lethal – growth inhibition of S. aureus RN4220, primary screen, OD600; 16 h; inhibition, % (concentration not given with the values); actives 0.33% (n = 330,000); AID 1259311, 2017;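 active = z-score of -3 or lower and OD600 up to 0.18 on both plates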;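 note: plate controls were untreated cells for no effect and reference antibiotic for full effect; stock transfer was 100 nL into about 80 µL; one replicate is shown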
BJeLR lethal – MLPCN primary cell-based screen for lethality selective to Ras in HRASV12 cells. actives 0.17% (n = 300,000). inhibition, % (no concentration beside the values). BJeLR (HRASV12) viability, CellTiter-Glo ATP luminescence, 48 h; reference of the scale not given here;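 active = replicate mean above 50%; inconclusive = above 50% but judged a plate artefact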;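 note: 50 nL library stock added to about 25 µL; numbers are from one replicate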
PrP UTR inh – inhibition of PrP 5' UTR reporter expression | cell-based PrP 5' UTR mRNA reporter, plate reader | inhibition, % (test concentration not listed) | actives 0.35% (n = 340,000) | AID 488862, 2010;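 active = every replicate at 50% or more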;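 note: 0 = median of the neutral control wells; tested in H4 reporter cells; numbers are from one replicate; inactives centre near -14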
Mtb hypoxia inh growth – also measured in Mtb hypoxia inh; calls as there; growth inhibition, %; measured here: M. tuberculosis growth (absorbance);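 0% = vehicle and 100% = reference antibiotic; read after six days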
* = called active by the depositor; ? = inconclusive; nt = not tested or not shown.

SMILES	ugtP null kill	Autofluor counter	Mtb hypoxia inh	Mtb hypoxia inh growth	Sa RN4220 lethal	BJeLR lethal	PrP UTR inh
CCc1cc(C(N)=O)c(NC(=O)c2ccc(OC)cc2)s1	-8	3191	3	8	22	6	-40
COc1ccc(NC(=O)C2CCCNC2=O)cc1 (stereo not drawn)	9	3948	7	3	3.4	2	1
Cc1cccc(C)c1NC(=O)c1ccccc1C(=O)O	0	4859	16	10	3.6	11	-18
Cn1cc(C(=O)Nc2cccc(F)c2)cn1	2	4862	nt	nt	1.4	-4	-16
O=C(O)c1ccc[n+](Cc2ccc([N+](=O)[O-])cc2)c1	12	nt	2	-3	2.5	12	nt
O=c1cc(N2CCCC2)c2ccccc2o1	2	4520	18	11	2.5	9	-1
COc1ccccc1-c1nc(SCC(=O)N2CCC(C(N)=O)CC2)n[nH]1	4	4122	5	5	2.8	nt	-15
N#CC(=Cc1c(N(Cc2ccccc2)Cc2ccccc2)nc2ccccn2c1=O)C(N)=O	1	nt	-5	5	9.5	nt	nt
COc1ccc(-n2c(-c3ccco3)nc3c(cnn3-c3ccc(C)cc3)c2=O)cc1	11	3540	3	-1	3.0	-11	-5
O=C(CSCc1ccc(Cl)cc1)Nc1ccc2c(c1)OCCO2	9	15281	4	4	2.2	5	-12
O=C(Nc1ccc(Br)cn1)c1cccc(C(=O)Nc2ccc(Br)cn2)c1	-1	3768	-4	4	-0.8	7	-5
CCOc1ccc(NC(=S)NC(=O)c2ccco2)cc1	1	3267	8	29	4.2	-6	-57
CC1=C(C#N)C(Nc2cccc(C)n2)(C(F)(F)F)C(=O)N1 (stereo not drawn)	3	3201	nt	nt	0.2	-4	-24
CC(=O)N1CCN(Cc2nc3cc(NC(=O)C4CCCCC4)ccc3n2C)CC1	0	20181*	3	5	1.8	1	-19
C=CCC(C)(NCc1ccccc1)c1ccccc1 (stereo not drawn)	12	4092	nt	nt	3.5	5	-34
CC(=O)Nc1ccc(NC(=O)CCc2c(C)noc2C)cc1	0	?	9	-9	3.9	nt	-20
CCCS(=O)(=O)c1snnc1C	-7	2969	11	12	-11	16	-20
Cn1c(=O)c2c(ncn2CC(=O)OCC(=O)NCc2ccc(Cl)cc2)n(C)c1=O	8	2006	9	8	1.7	-15	-18
CCOc1ccc(-n2c(N)c(C(=O)N3CCN(C)CC3)sc2=S)cc1	6	2622	17	2	2.2	-3	-17
O=C(C1CCN(Cc2cn[nH]c2-c2ccc(F)cc2F)CC1)N1CCOCC1	-2	4400	-4	4	-0.8	1	-14
Nc1nc(NCc2c(F)cccc2Cl)nn1-c1ccccc1	3	2941	nt	nt	6.6	-7	-26
CCOC(=O)c1[nH]ncc1CN1CCN(Cc2ccccc2)C(CCO)C1 (stereo not drawn)	7	3988	8	6	3.3	1	-36
NNC(=O)CSc1c(-c2cccs2)[nH]c2ccccc12	7	2268	8	9	-1.3	-2	-18
COc1cc(-c2noc(C)n2)cc(OC)c1OC	2	nt	-8	-2	4.2	11	-39
CCC(C)(C(=O)NC1CCCCC1)N(CC1CCCO1)C(=O)Cc1cccs1 (stereo not drawn)	5	3992	-4	0	6.6	7	-10

Following part.
SMILES	ugtP null kill	Autofluor counter	Mtb hypoxia inh	Mtb hypoxia inh growth	Sa RN4220 lethal	BJeLR lethal	PrP UTR inh
CCCCN(C(=O)c1cccc(S(=O)(=O)N2CCCC2)c1)c1c(N)n(CCC)c(=O)[nH]c1=O	7	3045	8	-2	2.2	nt	-9
Cc1c(-c2nc(N)nc(Nc3ccccc3)n2)oc2ccccc12	-15	2459	-1	-3	3.7	-6	-140
CC(C)(C)NC(=O)C1CCN(S(=O)(=O)c2ccc(Br)cc2)CC1	6	8539	3	9	-1.8	-15	-12
CCn1cc(C(=O)Nc2sc(C)c(C)c2C(=O)OC)cn1	0	2326	0	1	11	0	-1
COc1cc(NC(=O)c2ccccc2)c(OC)cc1NC(=O)Cc1ccccc1	8	4090	13	4	9.2	-10	-51
COc1nc(NCc2ccco2)nc(NC2CCCCC2)n1	-14	8452	5	7	3.2	2	-32
Cc1cccc(-c2nsc(SCC(=O)NCC3CCCO3)n2)c1 (stereo not drawn)	4	3741	nt	nt	5.1	5	-14
COCCN(CC(=O)NCc1ccc2c(c1)OCO2)C(=O)CCC(=O)Nc1nccs1	1	4655	nt	nt	1.4	-8	-9
CC(=O)N1CCc2cc(C(=O)CN3CCN(c4ccccn4)CC3)ccc21	-3	3463	7	2	6.7	-11	-24
O=C(CNC(=O)c1ccccc1)Oc1ccc([N+](=O)[O-])cc1	-6	5125	-3	-7	-2.8	-1	-15
CCc1cc(CNC(=O)C2CCC(=O)N(CCc3ccc(OC)cc3)C2)on1 (stereo not drawn)	9	4695	8	-1	0.9	-3	-15
CCc1nnc(NC(=O)CCC(=O)Nc2ccccc2)s1	5	3825	nt	nt	3.8	-2	-4
COc1ccc(C(=O)C[n+]2ccc(C)cc2)cc1	2	2521	nt	nt	3.4	20	-15
CC(=NNC(=O)c1ccc2c(c1)OCO2)c1ccc(NC(=O)CCCC(=O)O)cc1	2	nt	-12	-9	3.5	nt	nt
COc1ccc(OC)c(C2C(C(C)=O)=C(O)C(=O)N2CCN2CCOCC2)c1 (stereo not drawn)	0	9793	-1	3	4.5	8	-26
O=C(/C=C/c1ccco1)Nc1ccccc1N1CCCCC1	nt	2361	nt	nt	nt	-10	-11
CCOC(=O)C1C(=NO)CC(C)(O)C(C(=O)OCC)C1c1ccc(N(C)C)cc1 (stereo not drawn)	-2	nt	4	10	-14	nt	nt
CSc1nc(C)c(C(=O)Nc2ccccc2)c(-c2ccco2)c1C#N	-2	3904	5	-4	2.2	12	-14
ON=C(CCc1ccccc1)c1ccc2c(c1)OCCO2	-9	nt	-3	3	6.9	nt	nt
Cc1cccc(N2C(=O)C(O)=C(C(=O)c3cccs3)C2c2cccc(Oc3ccccc3)c2)n1 (stereo not drawn)	2	nt	1	-8	-5.0	-6	-11
O=C(NCc1ccc2c(c1)OCO2)c1cc2n(n1)C(C(F)(F)F)CC(c1ccc3c(c1)OCO3)N2 (stereo not drawn)	-7	10140	13	8	7.2	2	-20
Cc1ccc(NC(=O)COC(=O)Cn2c(C)csc2=O)cc1S(=O)(=O)N1CCOCC1	13	2816	4	2	7.0	nt	4
O=C(c1cc(C2CC2)nn1-c1ccccc1)N1CCN(c2ncc(C(F)(F)F)cc2Cl)CC1	-3	3825	9	-3	-5.6	nt	-8
Cc1cc(OCC(=O)Nc2ccc(N3CCN(C(=O)c4ccco4)CC3)cc2)cc(C)c1Cl	-5	10496	12	6	1.4	11	-2
O=C(/C=C/c1cc([N+](=O)[O-])ccc1OC(F)F)NCc1ccc(Cl)cc1	9	2333	nt	nt	-6.5	2	-20

Four structures already listed, ordered by count of non-hydrogen atoms, lowest first:
SMILES	ugtP null kill	Autofluor counter	Mtb hypoxia inh	Mtb hypoxia inh growth	Sa RN4220 lethal	BJeLR lethal	PrP UTR inh
ON=C(CCc1ccccc1)c1ccc2c(c1)OCCO2	-9	nt	-3	3	6.9	nt	nt
O=C(/C=C/c1ccco1)Nc1ccccc1N1CCCCC1	nt	2361	nt	nt	nt	-10	-11
CSc1nc(C)c(C(=O)Nc2ccccc2)c(-c2ccco2)c1C#N	-2	3904	5	-4	2.2	12	-14
CC(=O)N1CCN(Cc2nc3cc(NC(=O)C4CCCCC4)ccc3n2C)CC1	0	20181*	3	5	1.8	1	-19

Later entries
SMILES	ugtP null kill	Autofluor counter	Mtb hypoxia inh	Mtb hypoxia inh growth	Sa RN4220 lethal	BJeLR lethal	PrP UTR inh
O=C(OCC(=O)N1CCN(C(=O)c2ccco2)CC1)c1cncc(Br)c1	-3	7701	7	-4	2.6	nt	-16
COc1cc2nc(=S)n3[nH]c(CCn4c(C)nc5ccccc54)nc3c2cc1OC	-5	4529	-1	10	2.6	-8	3
COc1ccc(CNC(=O)c2cc(C(=O)C3CC3)c[nH]2)cc1	-3	5977	1	0	-0.3	10	-4
CCN1CCN(C(=O)Cn2nc(-c3ccc(Cl)cc3)ccc2=O)CC1	-7	4616	-14	-1	-3.3	3	-16
COc1cccc(CNC(=S)Nc2cc(OC)ccc2OC)c1	13	3825	7	1	7.5	6	-24
Cc1cc(/C=C2/SC(=O)N(CC(=O)OC(C)C)C2=O)c(C)n1C	-4	10308	6	11	2.3	-2	-80
O=C(N/N=C\c1cccc(OC(=O)c2ccco2)c1)c1ccc2c(c1)OCO2	nt	2092	nt	nt	nt	8	-113
Oc1ccc(-c2csc(Nc3ncccn3)n2)cc1	nt	4039	nt	nt	nt	8	-62
O=C(N/N=C\c1cc([N+](=O)[O-])ccc1N1CCOCC1)c1ccccn1	nt	2134	nt	nt	nt	1	-14
COc1ccc(/C(N)=N/OC(=O)CCC2CCCC2)cc1	15	5365	15	3	3.4	4	-11
CN1CC2C(c3ccc(Cl)nc3)C3(c4ccccc4)CC2(C3)C1c1ccccc1 (stereo not drawn)	-1	nt	-1	7	1.4	nt	nt
CCN(C(=O)CSc1nc2ccccc2c(=O)n1Cc1ccc(C)cc1)C1CCS(=O)(=O)C1 (stereo not drawn)	0	7265	6	4	0.7	-3	-5
COc1ccccc1-c1sc2ccccc2c1-c1ccccc1OC	7	3433	0	4	-2.1	nt	-6
Cc1ccc(C(=O)CCC(=O)N2CCC(C(N)=O)CC2)s1	8	3908	2	3	8.2	nt	-11
CSCC[C@H](NC(=O)C1CCN(S(=O)(=O)c2ccc(C)cc2)CC1)C(=O)NCC1CCCO1 (stereo partly drawn)	2	5130	2	9	1.0	-1	-48
Cc1cccc(S(=O)(=O)NCCc2cn3ccccc3n2)c1	3	2915	9	4	4.7	-3	-29
CCCN(CCC)Cc1c(C(=O)N/N=C/C(C)=C\c2ccccc2)nnn1-c1nonc1N	nt	5125	nt	nt	nt	-10	-16
CCCCCOP(=O)(OCCCCC)C1(NS(=O)(=O)c2ccccc2)C=CC(=O)c2ccccc21 (stereo not drawn)	-17	3558	13	16	2.6	-1	-14
O=C(c1ccccc1)c1ccc(OCCCCN2CCCCC2)cc1	6	4658	nt	nt	3.5	4	-13
COc1ccc(Cl)cc1S(=O)(=O)N1CCN(C(=O)c2cc(OC)c(OC)c(OC)c2)CC1	3	2628	nt	nt	-0.6	nt	-2
CCCCN(CC)CCNC(=O)c1cc2c(C)nc3ccccc3c2o1	-1	6540	-3	8	-13	5	-13
CN(CCOc1ccccc1)C(=O)C1CCN(C(=O)c2ccc(F)cc2)CC1	14	6827	-2	7	-0.8	8	-12
COc1ccc(C=NNc2ccc(C(=O)O)cc2)cc1Br	-14	nt	2	6	-4.1	nt	nt
Cc1cccc(C(=O)OCC(=O)NC(=O)Cc2ccccc2)c1O	5	5729	5	0	-0.6	-13	-15
O=C(NCCc1ccccc1)C1CCCN(S(=O)(=O)c2cccc3nsnc23)C1 (stereo not drawn)	4	2045	1	-3	0.9	-6	-8

The list continues.
SMILES	ugtP null kill	Autofluor counter	Mtb hypoxia inh	Mtb hypoxia inh growth	Sa RN4220 lethal	BJeLR lethal	PrP UTR inh
COc1ccc(/C=C/c2c(-c3cccc(C)c3)oc3ccc(N4CCOCC4)cc23)cc1	nt	3539	nt	nt	nt	0	-25
CCOC(=O)N1CCN(S(=O)(=O)c2c(C)cc(C)cc2C)CC1	8	4601	nt	nt	-1.0	6	-4
O=C(CN(Cc1ccc(F)cc1)S(=O)(=O)c1ccccc1)N1CCCCC1	-3	2937	10	13	-3.0	5	4
Cc1ccc(CNC(=O)c2ccccc2NC(=O)CSc2nnnn2C)cc1	-4	3046	17	9	-14	12	-1
O=C(CSc1nnnn1-c1ccccc1)Nc1ccc(Cl)cc1	-9	5823	0	1	6.2	-6	-24
CC(NC(=O)CN1CCN(C(=O)c2cccs2)CC1)c1ccc(F)cc1F (stereo not drawn)	-4	nt	1	3	-2.2	nt	-8
Cc1nc(N)sc1-c1csc(Nc2ccc(S(N)(=O)=O)cc2)n1	-3	3546	-5	12	5.4	5	-6
O=C1CCN2C=Nc3cccc4ccc1c2c34	-1	3040	-7	7	-0.2	1	-2
C=CCOC(=O)C1=C[C@H](c2ccc(Br)cc2)C[C@H](OCCCCO)O1	nt	3767	nt	nt	nt	-10	-4
Cc1ccc(S(=O)(=O)N(Cc2ccccc2)c2ccccc2C(=O)NCc2cccnc2)cc1	-6	11166	-4	14	0.3	11	-20
O=C(CN(C(=O)CNC(=O)c1cccs1)c1ccc(F)cc1)NC1CCCCC1	3	3895	5	11	5.1	3	-9
COc1cc(C(=S)N2CCOCC2)cc(OC)c1OC(=O)c1ccc(F)cc1	1	3969	-9	1	-1.3	4	8

High-throughput results deposited in PubChem BioAssay by several laboratories.
